KCNQ2 inh – KCNQ2 potassium channel inhibitors, primary screen, cell-based, CHO-K1, FluxOR thallium flux, B-score (AID 2156) | 20 min; stronger effect = lower value; only compounds with negative scores are shown here; some inactives read as strong as hits | B-score at 10 µM | Potassium voltage-gated channel subfamily KQT member 2 (Rattus norvegicus), O88943 | hit rate 1.1% among 310,000;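 active = fluorescence ratio B-score at most minus 3 library SDs, with starting brightness B-score within 2 library SDs, cut at about -5.5 in these data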
Target sequence (O88943 whole entry, looked up): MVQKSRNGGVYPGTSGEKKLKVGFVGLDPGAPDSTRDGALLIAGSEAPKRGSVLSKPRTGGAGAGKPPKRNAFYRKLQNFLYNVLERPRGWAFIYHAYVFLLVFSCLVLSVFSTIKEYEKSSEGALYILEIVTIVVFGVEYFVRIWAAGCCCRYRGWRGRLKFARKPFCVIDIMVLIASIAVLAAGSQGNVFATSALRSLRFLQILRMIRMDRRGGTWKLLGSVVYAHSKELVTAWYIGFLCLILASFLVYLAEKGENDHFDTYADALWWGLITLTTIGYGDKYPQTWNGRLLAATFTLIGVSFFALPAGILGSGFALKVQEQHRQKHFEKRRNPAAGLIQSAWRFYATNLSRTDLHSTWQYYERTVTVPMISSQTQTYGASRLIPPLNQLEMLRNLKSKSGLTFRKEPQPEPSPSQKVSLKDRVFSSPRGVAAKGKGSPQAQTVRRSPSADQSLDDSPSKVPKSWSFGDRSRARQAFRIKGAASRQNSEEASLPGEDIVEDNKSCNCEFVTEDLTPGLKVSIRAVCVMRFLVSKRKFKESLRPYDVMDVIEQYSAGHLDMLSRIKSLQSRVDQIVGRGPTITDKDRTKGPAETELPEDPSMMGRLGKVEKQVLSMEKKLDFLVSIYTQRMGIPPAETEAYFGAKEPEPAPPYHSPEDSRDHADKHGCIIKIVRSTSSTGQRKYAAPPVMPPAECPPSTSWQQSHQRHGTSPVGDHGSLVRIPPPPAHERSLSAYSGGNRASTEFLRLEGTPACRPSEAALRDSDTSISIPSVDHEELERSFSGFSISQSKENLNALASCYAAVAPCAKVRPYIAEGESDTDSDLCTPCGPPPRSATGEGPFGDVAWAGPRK
KCNQ2 inh baseline – second read-out of KCNQ2 inh, no call of its own (marks repeat the call); B-score; measured here: initial fluorescence intensity artifact check;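 brightness before thallium and not channel activity; 0 = typical well and far values either way flag optical interference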
An asterisk follows results filed as active; i = inactive. This is a subset. The share of hits here may be higher or lower than overall.

Sequence of screens – KCNQ2 inh | KCNQ2 inh baseline
Cn1c(SCc2ccc(Cl)cc2)nnc1-c1ccc2nonc2c1
    i | -0.01
Cc1cc(-c2ccc(Br)s2)nc(-n2cccc2)n1
    i | 2.4
Cc1ccc(S(=O)(=O)/N=C(\Nc2cccc(C)c2)Nc2nc(C)cc(C)n2)cc1
    i | -0.44
COc1c(C)cc(Br)cc1C(=O)Nc1ccccc1N1CCN(C(=O)c2ccccc2)CC1
    i | 0.48
COc1cccc(C(=O)COC(=O)CCCC(=O)NC2CCCCC2)c1
    i | -0.89
CCc1ccccc1NC(=S)N(CCCN1CCOCC1)Cc1ccccn1
    i | 0.08
Cc1nc2ncnn2c(C)c1Cc1ccc(Cl)cc1
    i | -0.99
S=C1SCN(Cc2ccco2)CN1Cc1ccco1
    i | 0.49
Cc1cc(C(=O)N2CCN(C(=O)C3CCCO3)CC2)no1 (configuration not stated)
    i | -0.7
COc1ccc2c(c1)CC(C1(O)C(=O)Nc3ccccc31)C2=O (configuration not stated)
    i | 1.2
O=C(COC(=O)C1C2CC3OC(=O)C1C3C2)Nc1ccc(Br)cc1 (configuration not stated)
    i | 0.99
COc1ccc(C(=O)NC(=S)Nc2ccc(N3CCN(C(C)=O)CC3)cc2)cc1[N+](=O)[O-]
    i | -1
Cc1ccc(OC(C)C(=O)Nc2ccc(S(=O)(=O)Nc3nccs3)cc2)cc1 (configuration not stated)
    i | -0.32
CCC(C)NC(=S)Nc1ccccc1 (configuration not stated)
    i | -0.57
Cc1cccc(-c2nc(CSc3nc4c(c(=O)[nH]3)CCC4)c(C)o2)c1
    i | 1.4
COC(=O)[C@@H](NC(=O)O[C@@H]1C(=O)c2cc(Br)ccc2O[C@H]1c1cccc(OC)c1)C(C)C
    i | -0.33
COc1ccc(N2CCCC2)c(NC(=O)c2ccc([N+](=O)[O-])o2)c1
    i | 0.99
O=C(COc1ccc2ccc(=O)oc2c1)NCCc1c[nH]c2ccc(F)cc12
    i | 0.81
O=c1cc(O)c2c(=O)n(C3CCCCC3)c3ccccc3c2o1
    i | 2.1
CCOC(=O)C1CCN(C(=O)c2sc3nc(C)nc(N4CCC(C)CC4)c3c2C)CC1
    i | 0.74
CN(C)CCCNC(=O)C(=O)NCC1OCCN1S(=O)(=O)c1cccs1 (configuration not stated)
    i | 0.04
Cn1c(SCC(=O)NCc2ccc3c(c2)OCO3)nc2scc(-c3cccs3)c2c1=O
    i | 2.6
COc1ccc(Cn2c(S(=O)(=O)CC(N)=O)nc3ccccc32)cc1[N+](=O)[O-]
    i | -0.78
Cc1cccc(N(Cc2cc3ccccc3[nH]c2=O)S(C)(=O)=O)c1
    i | 0.77
CCOC(=O)C1CCN(S(=O)(=O)Cc2ccccc2)CC1
    i | 1.3
O=C(Nc1ccn(Cc2c(F)c(F)cc(F)c2F)n1)c1ccc(COc2ccc(Cl)cc2Cl)o1
    i | -0.15
CCOC(=O)C(CCCOc1cccc(OC)c1)C(=O)OCC
    i | -1
O=C(c1ccc(CNc2c(N3CCCC3)c(=O)c2=O)cc1)N1CC=C(c2ccccc2)CC1
    i | 0.43
CN(C)C(=S)N=Nc1[nH]c2ccccc2c1O
    i | -0.63
O=C(c1ccccc1)N1CCC(CC2CC(c3cccc(Br)c3)=NO2)(C(=O)NCC2CCCCC2)CC1 (configuration not stated)
    i | -2.8
CN(Cc1ccccc1)C(=O)COC(=O)/C=C/c1ccco1
    i | 4
Cc1cccc(/C=N/NC(=O)c2c(-c3ccccc3)noc2C)c1O
    i | -0.01
Nc1nc(O)c(CC(=O)O)s1
    i | 0.23
COc1ccc(CN2CCNC(=O)C2CC(=O)NCc2cn3ccc(C)cc3n2)c(OC)c1 (configuration not stated)
    i | -3
O=C(/C=C/c1ccncc1)c1ccc2c(c1)OCCO2
    i | 1.7
O=C(CN1C(=O)CSc2ccc(S(=O)(=O)N3CCOCC3)cc21)NCc1ccc(Cl)cc1
    i | -1.5
N#C/C(=C\c1cccc(O)c1)C(=O)Nc1ccc2c(c1)OCCO2
    i | 0.34
N#C/C(=C\c1ccc(O)cc1)c1nc2ccccc2o1
    i | -0.01
O=C(NCCOCc1ccc(Cl)cc1)c1ncn[nH]1
    i | -1.1
Cc1ccc2nc(N3CCN(S(=O)(=O)c4ccc5c(c4)OCCO5)CC3)c(C#N)cc2c1
    i | -0.48
CS(=O)(=O)N(CC(=O)Nc1ccccc1-c1ccccc1)c1cccc(F)c1
    i | 0.03
Cc1cc(C)cc(NC(=O)CN2CCN(CCN=CC3=C(O)CC(c4ccc(Cl)cc4)CC3=O)CC2)c1 (configuration not stated)
    i | -1
Cc1ccc(Nc2cc(C)c3c(O)cccc3n2)cc1C
    i | -0.41
Cc1ccc(NC(=O)COc2ccccc2CNC(C)(C)CC(C)(C)C)cc1
    i | 0.07
COc1ccc(NC(=O)C(NC(C)=O)C(=O)NCc2ccccc2Cl)cc1 (configuration not stated)
    i | 0.19
O=c1cc(O)c(-c2ccc(Cl)cc2)c(Cl)[nH]1
    i | -1.3
O=C1c2cc(F)ccc2OC2(CCNCC2)C12CC(c1ccccc1)=NO2 (configuration not stated)
    i | -0.2
COC(=O)c1cccc(S(=O)(=O)N2CCC(C)CC2)c1
    i | 2.1
N/C(=N\OC(=O)c1ccccc1)c1ccn[nH]1
    i | 0.84
Cn1c(SCC(=O)NCC2CCCO2)nnc1-c1ccc(S(=O)(=O)N2CCCC2)cc1 (configuration not stated)
    i | -0.7
CCC(C)NC(=O)C1(O)c2cc(Br)ccc2NC(=O)N1c1cccc(OC)c1 (configuration not stated)
    i | 0.67
CCOC(=O)c1oc2ccccc2c1NC(=O)c1ccc(Cl)s1
    -7.6* | 0.42*
COc1ccc(-n2c(C)nc3cc(C(=O)NCCN4CCOCC4)ccc32)cc1
    i | -2.4
COc1ccc(S(=O)(=O)N(C)C)cc1NC(C)C(=O)Nc1cccc(C#N)c1 (configuration not stated)
    i | -0.16
Cc1ccc(C)c(S(=O)(=O)NCC(c2ccc3c(c2)OCO3)N2CCOCC2)c1 (configuration not stated)
    i | -1.2
Cc1cc(C)cc(NC(=O)C(OC(=O)c2ccc([N+](=O)[O-])o2)c2ccccc2)c1 (configuration not stated)
    i | -1.8
Cc1ccc(C(=O)NCC(=O)OCC(=O)c2ccc(Cl)s2)cc1
    i | 1
COCCNC(=S)N(CCCO)Cc1cc2cc3c(cc2[nH]c1=O)OCCO3
    i | -0.52
Cc1ccccc1NC(=O)C1Cc2ccccc2CN1C(=O)c1ccco1 (configuration not stated)
    i | -1.4
O=C(c1ccc(S(=O)(=O)N2CCOCC2)cc1)N1CCc2ccccc2C1
    i | 0.31

Carrying on.
Compound,KCNQ2 inh,KCNQ2 inh baseline
COc1ccc(-c2ccc([C@H]3[C@H]4C=CC[C@@H](C)[C@@H]4C(=O)N3Cc3ccccc3)c(F)c2)cc1,i,-1.2
CC(=O)Nc1cccc(Oc2ncccc2[N+](=O)[O-])c1,i,0.02
CCC(C)[C@H]1CN=C(N)N1CCc1cccc2ccccc12 (some centres not stated),i,0.63
[O-]/C(=C(\C(=S)Nc1cccc2ccccc12)[n+]1ccccc1)c1ccc2c(c1)OCCO2,i,1.3
c1ccc(Cn2nnnc2C(c2cccs2)N2CCc3ccccc3C2)cc1 (configuration not stated),i,2.5
CN(C)CCNC(=O)C(=O)Nc1cc2c3c(c1)CCC(=O)N3CCC2,i,0.38
Clc1ccc2nc(N3CCCCC3)sc2c1,i,0.1
CCCCCOC(=O)CSc1n[nH]c(=O)[nH]c1=O,i,1.4
CCN1CCN(C(=O)CN(c2ccc(F)cc2)S(=O)(=O)c2ccc(OC)c(OC)c2)CC1,i,0.47
N#C/C(=C\c1ccc(F)cc1)C(=O)Nc1ccccn1,i,-2.4
Cc1c(Cl)cccc1-n1cnc(=O)c2ccccc21,i,0.61
CCn1nc(C(=O)Nc2cccc3ccccc23)c(Cl)c1Cl,i,-0.45
CN/C(=C/[N+](=O)[O-])NCCSCc1ccc(CN(C)C)o1,i,3.1
COc1ccc(NC(=O)[C@H](Cc2c[nH]c3ccccc23)NC(=O)[C@@H]2Cc3ccccc3CN2)cc1,i,0.06
O=C(CSc1ncn[nH]1)NCCc1ccccc1,i,2

Full records from above. Screens in order: KCNQ2 inh, KCNQ2 inh baseline
Listed for CN(C)C(=S)N=Nc1[nH]c2ccccc2c1O = i, -0.63
Listed for [O-]/C(=C(\C(=S)Nc1cccc2ccccc12)[n+]1ccccc1)c1ccc2c(c1)OCCO2 = i, 1.3
Listed for O=C(CSc1ncn[nH]1)NCCc1ccccc1 = i, 2
Listed for COc1ccc2c(c1)CC(C1(O)C(=O)Nc3ccccc31)C2=O (configuration not stated) = i, 1.2

Next section:
Compound,KCNQ2 inh,KCNQ2 inh baseline
COc1ccc(NC(=O)C2CCN(c3ncnc4c3nc3n4CCCCC3)CC2)cc1Cl,i,-0.53
CCc1nc(N2CCN(C(=O)c3ccco3)CC2)c(C#N)c2c1COC(C)(C)C2,i,-0.36
O=C(CCS(=O)(=O)c1ccc(Br)s1)Nc1ccccc1Br,i,3
Cc1ccc(-c2nnc(OCc3cccnc3)c3ccccc23)cc1,i,1.1
COc1ccc(N2CCN(C(=O)COC(=O)c3ccccc3OCc3ccc(F)cc3)CC2)cc1,i,0.62
CCC(C)c1ccc(NC(=O)COC(=O)C2=COCCO2)cc1 (configuration not stated),i,-0.58
O=C(CN1C(=O)NC2(CCCC2)C1=O)Nc1cc(S(=O)(=O)N2CCOCC2)ccc1OCC(F)(F)F,i,0.04
O=C(COc1nncc2ccccc12)Nc1c(F)c(F)c(F)c(F)c1F,i,2.2
O=[N+]([O-])c1ccccc1CSc1nc2ccccc2o1,i,-0.04
COc1ccccc1/C(C)=N/NC(=O)c1nnn(-c2nonc2N)c1C(C)C,i,-2.1
CN1CCCN(C(=O)c2c(F)cccc2Cl)CC1,i,1.1
CCn1cc(C(=O)N2CC=C(c3ccccc3)CC2)c(=O)c2ccc(C)nc21,i,-0.17
Cc1ccc(NC(=O)CSc2nc3ccccc3c(=O)n2CCCC(=O)NCC2CCCO2)cc1 (configuration not stated),i,1.4
O=C(Nc1ccccc1-c1ccccc1)C(c1ccccc1)c1ccccc1,i,2.9
COc1cc(/C=N/NC(=O)c2ccc(CN(C)S(=O)(=O)c3ccc(C)cc3)cc2)ccc1O,i,0.47

A run of entries taken from the entries so far:
Compound,KCNQ2 inh,KCNQ2 inh baseline
COc1ccc(NC(=O)C2CCN(c3ncnc4c3nc3n4CCCCC3)CC2)cc1Cl,i,-0.53
CCc1nc(N2CCN(C(=O)c3ccco3)CC2)c(C#N)c2c1COC(C)(C)C2,i,-0.36
O=C(CCS(=O)(=O)c1ccc(Br)s1)Nc1ccccc1Br,i,3
Cc1ccc(-c2nnc(OCc3cccnc3)c3ccccc23)cc1,i,1.1

Additional entries follow.
Compound,KCNQ2 inh,KCNQ2 inh baseline
c1ccc(-c2cc(CSc3nc4ccccc4[nH]3)on2)cc1,i,0.42
Cc1cc2ccccc2n1CCC(=O)O,i,-1.1
COc1ccc(S(=O)(=O)NCC(c2cccs2)N2CCc3ccccc3C2)cc1 (configuration not stated),i,-0.53
Cn1c(=O)c2c(nc(-c3ccccc3)n2C)n(Cc2ccccc2)c1=O,i,-0.12
COc1ccc(NC(=O)CCNC(=O)Cn2ccc3ccccc3c2=O)c(OC)c1,i,1.1
Cc1nnc(SCC(=O)Nc2cc(C(C)(C)C)nn2-c2ccccc2)s1,i,0.67
CCCNC(=O)c1onc(CSc2ccc(Cl)cc2)c1C(=O)NC(C)C,i,0.94
CCN(CC)S(=O)(=O)c1ccc2c(c1)nc(CCC(=O)O)n2C,i,-0.99
CCN(CC(=O)NCc1ccc(Cl)cc1)C(=O)CN1C(=O)NC(C)(c2ccccc2)C1=O (configuration not stated),i,0.43
CN(CCOc1ccc(Cl)cc1)C(=O)C1CCN(C(=O)c2ccc(Cl)cc2)CC1,i,-0.01
NC(=O)CSc1nnc(SCc2ccc(F)cc2)s1,i,1.6
O=C(/C=C/Nc1nccs1)C(F)(F)Cl,i,0.33
O=C(CNC(=O)C(c1ccccc1)c1ccccc1)N/N=C\c1ccc(C(=O)O)cc1,i,0.2
CC(NC(=O)COC(=O)C1=COCCO1)C12CC3CC(CC(C3)C1)C2 (configuration not stated),i,0.1
COc1ccc(NC(=O)c2oc3ccccc3c2NC(=O)c2ccc3c(c2)OCO3)cc1,i,1.7
CCN(Cc1ccccc1)C(=O)c1cc(-c2ccc(OC)c(OC)c2)nc2ccccc12,-6.4*,-0.31*
Cc1ccc(S(=O)(=O)N2CCN(C(=O)COC(=O)c3ccccn3)CC2)c(C)c1,i,1.4
CC(C)N(C(=O)CSc1nc2c([nH]1)c(=O)n(C)c(=O)n2C)c1ccccc1,i,-0.41
CCOC(=O)C1CCN(C(=O)CNC(=O)c2nn(-c3ccc(OC)cc3OC)c(=O)c3ccccc23)CC1,i,0.02
CCCN(CC(=O)c1cc(C)n(C)c1C)S(=O)(=O)c1cccc(C(F)(F)F)c1,i,-0.54
Cc1ccccc1NC(=O)CCN1CCc2ccccc2C1,i,0.54
CC1CCCC(NC(=O)c2ccc(COc3ccccc3)o2)C1C (configuration not stated),i,0.67
Fc1ccc(OCCCCCCN2CCCC2)cc1,i,0.46
Cc1cc(/C=N\O)c(C)n1-c1ccncc1,i,2
Cc1cccc(NC(=O)c2ccccc2C(=O)O)c1,i,0.1

Bioassay records as filed in PubChem BioAssay.
